High-throughput results from PubChem BioAssay.
CSC inhib: blocks cancer stem cells; cancer stem cell-like cells viability, luminescence; inhibition, % at 7.5 µM; hit rate 1.1% among 300,000;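 active = mean at 75% or more and at least half the replicates too; inconclusive = mean and replicates disagree; tested in HMLE shEcad cells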;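 note: 0% = median of negative and 100% = median of positive control wells; the first replicate is given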
Rce1 inhib: blocks yeast Ras-converting enzyme; calls only; hit rate 0.27% among 290,000; Q03530; yeast membranes, quenched prenylated peptide cleavage fluorescence;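 active = fall in fluorescence gain of 50% or more versus controls, with final raw signal at or below 3038400; inconclusive = same 50% fall but final raw signal above 3038400; inactive = fall in fluorescence gain under 50%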;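 note: plate controls were neutral control wells for no effect and wells lacking membranes for full effect; tested at 10 µM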
Yeast UUG start: alters start codon recognition fidelity in yeast; S. cerevisiae UUG-firefly luciferase reporter, luminescence/redox ratio; activity score, % at 18.7 µM; hit rate 0.13% among 350,000; AID 602363;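 active = replicate mean at a twofold rise or more, about +100% in these data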;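 note: firefly luciferase made from a UUG start codon reports start codon fidelity; reporter light over untreated wells divided by growth signal over untreated wells; some hits fall short of that in this replicate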
Env fusion inh: blocks HIV Env-driven cell-cell fusion; HeLa-JRFL Env/CEM21 cell fusion, luciferase; inhibition, % at 12.3 µM; AID 651610; hit rate 1.1% among 360,000;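 active = mean replicate inhibition score of at least 50 and every replicate individually at or above 50; inconclusive = only one of the two criteria met; inactive = mean below 50 and not all replicates reaching 50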;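 note: 0% = plate neutral controls and 100% = maraviroc near 300 nM; one replicate is shown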
PABP FP inh: PABP-poly(A) binding inhibition; PABP-poly(A) RNA binding, fluorescence polarization; inhibition, % at 35 µM; hit rate 1% among 290,000; AID 2014;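 active = 50% or more with normal probe brightness, or confirmed in later tests; inconclusive = above 50% with abnormal brightness, or retests that disagree; inactive = below 50% or failed in later tests; about a fifth of its hits are not listed in these tables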;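 note: calls also rest on retests at 20 µM and on dose response follow-up; controls were probe without protein and protein plus probe with vehicle; some compounds called inactive have numbers as strong as hits; many hits fall short of the cut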
Target sequence (P11940 whole entry, looked up): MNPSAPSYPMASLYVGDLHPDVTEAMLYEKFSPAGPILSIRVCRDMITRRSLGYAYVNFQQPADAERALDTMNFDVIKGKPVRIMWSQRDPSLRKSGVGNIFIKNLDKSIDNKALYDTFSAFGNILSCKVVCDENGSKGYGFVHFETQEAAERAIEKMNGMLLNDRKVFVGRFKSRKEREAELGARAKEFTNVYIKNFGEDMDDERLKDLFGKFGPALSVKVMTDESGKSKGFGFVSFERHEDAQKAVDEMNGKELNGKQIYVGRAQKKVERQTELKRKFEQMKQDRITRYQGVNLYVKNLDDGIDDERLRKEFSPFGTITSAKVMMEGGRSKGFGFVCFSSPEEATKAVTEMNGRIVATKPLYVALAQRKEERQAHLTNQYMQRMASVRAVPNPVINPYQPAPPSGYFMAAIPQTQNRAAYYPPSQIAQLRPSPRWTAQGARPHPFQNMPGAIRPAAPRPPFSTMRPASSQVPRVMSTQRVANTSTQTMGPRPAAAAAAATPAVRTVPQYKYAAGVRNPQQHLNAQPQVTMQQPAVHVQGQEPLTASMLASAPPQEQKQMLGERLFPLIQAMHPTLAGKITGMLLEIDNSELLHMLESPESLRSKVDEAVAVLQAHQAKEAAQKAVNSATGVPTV
MT1-MMP act inh: MT1-MMP (human) activation inhibition | P50281 | HT1080 RFP-PRO-GFP cells, GFP/RFP ratio fluorescence, overnight; percent of plate control window, DMSO zero | GFP/RFP ratio change, % at 20 µM | hit rate 0.061% among 360,000 | AID 651647;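 active = GFP/RFP ratio change of at least 30% with cell ATP level not reduced by more than half and red fluorescence within 50% of control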; note: strong numbers were not always called active
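Assay system: HT1080 RFP-PRO-GFP cells | Dosing: 20 µM single dose, 1% DMSO | Incubation: Cells overnight before dosing, compound overnight, 37 °C, 5% CO2 | Evaluation: GFP/RFP fluorescence ratio | Control set: DMSO-only wells and HT1080 RFP-L50D-GFP cell wells as references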
eIF4H inh: inhibitors of RNA binding by human eIF4H | Q15056 | eIF4H fluorescence polarization binding assay | inhibition, % at 35 µM | hit rate 0.94% among 290,000;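 active = 50% or more with normal probe brightness, or confirmed in later tests; inconclusive = above 50% with abnormal brightness, or retests that disagree; inactive = below 50% or failed in later tests; about a fifth of its hits are not listed in these tables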;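 note: calls also rest on retests at 20 µM and on dose response follow-up; 0% = protein and probe with vehicle and 100% = probe without protein; strong numbers were not always called active; many hits fall short of the cut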
eIF4H inh retest: further read-out of eIF4H inh, marked with its call; inhibition, %; compound at 20 µM; confirmation average;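 mean of two retest wells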
PABP FP inh retest: further read-out of PABP FP inh, marked with its call; inhibition, %; compound at 20 µM; confirmation repeats;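 mean of two retest wells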
MT1-MMP act inh RFP: also measured in MT1-MMP act inh; calls as there; RFP signal change, %; measured here: RFP expression control read;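 0 = vehicle wells; hits needed this value within 50% of zero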
* = called active by the depositor; i = inactive; u = inconclusive; x = not tested or not shown; + = active, no number.

SMILES	CSC inhib	Rce1 inhib	Yeast UUG start	Env fusion inh	PABP FP inh	MT1-MMP act inh	MT1-MMP act inh RFP	eIF4H inh	others
Cc1ccc2nc(C)cc(Nc3ccc4c(c3)OCCO4)c2c1	-1	i	-21	-43	-6	-4	1	-7
COc1ccc(C(=O)COC(=O)CNC(=O)c2ccc(C)s2)c(OC)c1	-15	x	1	x	x	-3	2	x
O=C1/C(=C/c2ccc3c(c2)OCO3)CCC/C1=C\c1ccc2c(c1)OCO2	38	i	x	18	5	-7	-1	64	eIF4H inh retest=-7;PABP FP inh retest=1
Cc1nn(-c2ccccc2)c(C)c1/C=N\N1CCN(c2ccc(Cl)cc2)CC1	6	i	x	x	9	-5	-26	-7
COc1ccc(C(=O)N/C(=C\c2cn(S(=O)(=O)N(C)C)c3ccccc23)C(=O)NC(C)C)cc1	-11	i	x	-15	6	-3	-1	-3
OC[C@@H]1CN(Cc2cccc(C(F)(F)F)c2)C[C@H](n2cnc3c(NC4CC4)ncnc32)O1	x	x	17	9	x	1	-4	x
CS(=O)(=O)c1cccc(C(=O)N(CCc2ccccc2)Cc2cccs2)c1	2	i	-5	-5	1	-1	-1	-4
CN(CC(=O)Nc1ccc(S(=O)(=O)N2CCOCC2)cc1)Cc1ccc(F)cc1	x	x	-11	13	x	1	-3	x
COc1ccc(/C=C/C(=O)NC(=S)N2CCOCC2)cc1	x	i	-28	-20	2	2	0	-5
COCCCN1CN(S(=O)(=O)c2ccc(Cl)cc2)c2nc3ccccc3nc21	x	i	-8	x	53*	-3	0	50*
Cc1ccc(C)c(CSCc2nc3ccccc3[nH]2)c1	15	i	-12	7	3	0	-5	-14
CCN(Cc1ccccc1)S(=O)(=O)c1ccc(C(=O)N(CCCN(C)C)c2nc3c(C)c(C)ccc3s2)cc1	-3	+	-7	x	x	-5	-8	x
Cc1cccc(CC(C)NC(=O)c2cc(COc3ccc(F)cc3F)on2)n1 (stereo unspecified)	-5	i	-19	1	-15	5	-2	4
COc1ccc(NC(=O)Nc2ccc(F)cc2)cn1	3	i	-19	-8	2	2	1	9
C=CCN(C(=O)Cn1nnc2ccccc21)C(C(=O)NCCOC)c1ccc(OC)cc1OC (stereo unspecified)	-10	i	-25	-12	14	5	4	5
CCN(CC(=O)Nc1ccc(OC)cc1)C(=O)c1ccc2c(c1)NC(=O)C(C)S2 (stereo unspecified)	-6	i	2	-36	x	-8	3	x
CCOc1ccc(-n2c(-c3ccccc3)nnc2-c2ccccc2)cc1	0	i	-17	x	-2	1	1	-9
CCC(CC)C(=O)Nc1nnc(CCc2ccccc2)s1	-15	i	-1	-2	-8	-3	-4	1
Cc1ccc(C2(C)NC(=O)N(CC(=O)N(Cc3ccccc3)C(C)(C)C)C2=O)cc1 (stereo unspecified)	17	i	-8	-1	2	-8	-6	5
CN1CCn2cnc(C(=O)Nc3ccc(Cl)cc3)c2C1=O	x	x	-9	-14	x	5	2	x
O=C(Nc1cc([N+](=O)[O-])ccc1N1CCOCC1)c1ccco1	-6	i	-16	-1	-3	-1	-2	2
CCCCn1c(SCC(=O)O)nc2ccccc21	-6	i	-14	-44	4	-2	-3	-6
CN(C)CCCNC1=CC(=O)CC(c2ccccc2)C1 (stereo unspecified)	-5	i	x	-23	-6	2	0	-8
COc1cc(OC)c2c(c1)OC(=O)CC2c1cc(OC)c(OC)c(OC)c1 (stereo unspecified)	x	x	-9	7	x	4	8	x
O=C(CN(CC1CCCO1)S(=O)(=O)c1ccc(S(=O)(=O)NC2CC2)cc1)Nc1ccccc1 (stereo unspecified)	-12	i	3	x	25	-3	-2	-1

Continuation.
SMILES	CSC inhib	Rce1 inhib	Yeast UUG start	Env fusion inh	PABP FP inh	MT1-MMP act inh	MT1-MMP act inh RFP	eIF4H inh	others
C=CCn1c(=O)c2c(nc(Br)n2Cc2ccccc2Cl)n(C)c1=O	4	i	3	7	3	-5	-11	-8
Cc1cc(C)c(OCC(=O)N(Cc2ccc(N(C)C)cc2)C2CCS(=O)(=O)C2)c(C)c1 (stereo unspecified)	-7	i	22	-6	3	-2	-2	4
O=C(NC1CCCN(CCc2ccccc2)C1)c1c[nH]c2ccccc12 (stereo unspecified)	6	i	-6	-14	4	-1	-2	8
CCC1=NN(C(=O)c2cccc([N+](=O)[O-])c2)C(O)(c2ccc(C)cc2)C1 (stereo unspecified)	x	i	-15	15	6	3	-4	5
Cc1ccc(C(=O)NC(=S)Nc2ccc(S(=O)(=O)N3CCN(C)CC3)cc2)cc1	-4	i	x	x	-18	0	-4	-8
N#Cc1ccc(-c2nc3ccc(Cl)cn3c2Cc2cccc(F)c2)cc1	x	x	-16	-10	x	-1	-8	x
CN(C(=O)CSc1nnc(-c2ccccc2)c(-c2ccccc2)n1)C1CCS(=O)(=O)C1 (stereo unspecified)	-9	i	-3	10	6	1	0	5
CCCN(CC(=O)Nc1ccccc1C)C(=O)C1CC(=O)N(c2ccccc2C(C)CC)C1 (stereo unspecified)	-6	x	0	x	x	0	3	x
CCC(C(=O)NC1CCCC1)n1nc(C)n2c(cc3occc32)c1=O (stereo unspecified)	-15	i	-9	7	-4	-1	-2	1
O=C(NCC(c1ccco1)N1CCc2ccccc2C1)c1ccccc1 (stereo unspecified)	2	i	-21	2	x	5	2	x
O=C(Nc1cccnc1)Nc1cccc(F)c1	2	i	-27	-6	3	6	6	-2
CC1Cc2cc(/C(O)=C3/C(=O)C(=O)N(CCN4CCOCC4)C3c3cccc(Cl)c3)ccc2O1 (stereo unspecified)	x	i	-13	x	-8	4	3	-13
O=C1CN(c2ccc(Br)cc2)C(=O)N1CC(=O)N1CCCc2ccccc21	0	i	-31	-9	37	1	-5	12
O=C(C(c1ccccc1)c1ccccc1)N1CCCc2ccccc21	13	i	-20	43	4	-10	-9	1
O=C(Nc1ccccc1Oc1ccccc1)C1=COCCO1	-8	i	13	-35	-15	-4	0	-6
CCN(CC)S(=O)(=O)c1cccc(NC2=NCC(C)S2)c1 (stereo unspecified)	-4	i	-13	15	u	3	1	-10
CCCCCNC1=CC(=O)CC(c2ccccc2)C1 (stereo unspecified)	13	i	-2	x	9	1	1	11
CC(=O)c1ccc(N2CCN(CC(=O)Nc3cc(C)on3)CC2)cc1	-18	i	-1	10	-4	-4	-2	-7
O=C(O)c1sccc1Oc1ccc(F)cc1[N+](=O)[O-]	8	i	-5	-1	12	-6	3	-6
COc1ccc(-n2ncc3c(NCc4ccc5c(c4)OCO5)ncnc32)cc1	-8	i	x	-92	-4	5	-1	-3
Cc1cc(=O)n2cc(-c3ccccc3)nc2[nH]1	2	i	x	-113	-5	2	1	-5
Cc1ccc2c(c1)C(=O)N1[C@H]3c4ccccc4OC[C@@H]3[C@H](c3ccccc3)[C@]1(C)C(=O)N2	14	x	-5	x	x	-14	-8	x
Cc1ccc(NC(=O)CSc2nnc3n2CCCCC3)cc1S(=O)(=O)N1CCOCC1	x	x	-6	-26	x	3	-2	x
CNC(=O)c1cc2c(s1)CCCCCC2	-9	i	-11	-17	2	-1	3	-9
CCN(Cc1ccccc1)S(=O)(=O)c1ccc(OC)cc1	-10	i	20	17	3	1	-5	-10

Going on with the list:
SMILES	CSC inhib	Rce1 inhib	Yeast UUG start	Env fusion inh	PABP FP inh	MT1-MMP act inh	MT1-MMP act inh RFP	eIF4H inh	others
CCOc1ccc(OCC)c(NC(=O)CSCCc2ccccn2)c1	-10	i	-3	7	-13	-2	-5	0
CCOc1ccccc1N1CCN(C(=O)NC(C)c2ccc(F)c(F)c2)CC1 (stereo unspecified)	-10	x	6	-3	8	4	-1	15
CCCc1nnc(NC(=O)CN2C(=O)C3C4C=CC(C4)C3C2=O)s1 (stereo unspecified)	-9	x	5	-33	-13	-1	-1	-9
CCOC(=O)c1ccc(NC(=O)CCc2c(C)nc3ncnn3c2C)cc1	-12	i	-13	-2	18	2	3	1
COC(=O)c1ccc(Nc2ccc3nonc3c2[N+](=O)[O-])cc1	-14	i	-3	4	9	0	-1	-1
C/C(=N\NC(=O)CCc1c[nH]c2ccccc12)c1ccc([N+](=O)[O-])cc1	5	i	x	6	-1	-1	-5	0
O=C(CSc1nnnn1-c1cccc2c1CCCC2)N1CCCCC1	-7	i	-14	x	5	1	-12	6
O=Nc1c(O)c2ccccc2c2ccccc12	122*	i	-59	81*	x	0	-8	x
COc1ccc(NC(=S)N(CCc2c(C)[nH]c3ccc(C)cc23)Cc2cccnc2)cc1	-10	i	-26	-40	-4	-3	-4	10
CC(C)Cc1nnc(NC(=O)CCC(=O)NC2CC2)s1	4	i	8	4	10	0	3	1
Cc1cc(C)c2c(=O)n3c(nc2c1)C(Cc1ccc(O)cc1)NC(=O)c1cccnc1-3 (stereo unspecified)	x	x	6	-13	x	-25	-38	x
CCOC(=O)c1c(S(=O)(=O)N2c3ccccc3CC2C)c(C)n(C)c1C (stereo unspecified)	9	i	-3	7	10	0	4	-2
NS(=O)(=O)c1ccc(CCNC(=O)c2cnc(Cl)c(Cl)c2)cc1	-5	x	-10	-7	3	-2	1	-5
CC(C)[C@H](NC(=O)N1CC(=O)Nc2ccccc21)C(=O)N[C@H](C(=O)O)c1ccccc1	-6	i	-3	2	-4	2	6	-4
CCN(C(=O)CSc1ncccn1)C1CCS(=O)(=O)C1 (stereo unspecified)	-1	i	-11	2	-14	-1	1	-11
Cc1ccc(S(=O)(=O)CCC(=O)OC(C)C(=O)NC2CCCCC2C)cc1 (stereo unspecified)	x	i	4	2	x	1	-2	x
Cc1cc(Oc2ccc(Cl)cc2)nc(-c2ccccc2O)n1	2	i	-13	x	-2	2	3	-4
Cc1cccc(OCc2nnc(SCC(=O)O)n2-c2ccccc2)c1	0	i	-5	8	4	-1	5	-6
O=C(NC1CCCCC1)C(=S)NCCc1ccccc1	6	i	-4	-7	8	-3	2	8
CC(C)C(=O)Nc1nnc(S(=O)(=O)N2CCc3ccccc32)s1	3	i	-22	-19	-11	2	-1	5
Cc1cccc(NC(=O)Nc2cccc(Oc3c(F)c(F)c(F)c(F)c3F)c2)c1	31	i	x	x	0	-13	-20	-6
CCOc1ccccc1OCCOCCOc1c(Cl)cccc1Cl	4	i	x	20	-4	-2	0	-8
CSC1=NC(C)(C)C=C(/C=C/c2ccc(Cl)cc2)N1	18	i	-10	4	-5	-16	-7	15
O=[N+]([O-])c1ccc(OCCn2cncn2)cc1	-8	i	x	-8	-9	0	0	-10
Cc1ccc(C2=NOC(C)(c3nnc(-c4ccccc4)o3)C2)cc1 (stereo unspecified)	-8	i	-6	6	x	1	2	x
CC(C)(C)c1ccc(S(=O)(=O)N2CC(C(=O)O)Oc3ccc(Cl)cc32)cc1 (stereo unspecified)	x	i	-13	-11	9	-1	2	17
CN(C)CC(C)(C)CNS(=O)(=O)c1ccc(Cl)cc1	4	i	5	-4	-8	-2	0	-3
COc1cc(C(=O)OCC#N)ccc1OCc1c(C)noc1C	1	i	-13	-16	5	1	-3	2
